Source: PubChem
supercomplex – modulators of mitochondrial supercomplex assembly, cell-based, luminescence, Hoechst nuclei count (AID 1645838); Cells, luminescence/Hoechst cell count ratio, supercomplex reporter; stronger effect = higher value; z-score at 11 µM unless noted; actives 5% (n = 2,000);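 active = mean z-score of two plates above 1.96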;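 also: control cybrid cells; higher means more mitochondrial supercomplex formation; U2OS-based cells read after two days; 0 = mean of sample wells on the plate; doses worked out from stocks diluted about 900-fold with the highest of each compound shown; many of its hits are not listed in these tables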
supercomplex cell count – also measured in supercomplex; calls as there; cell count; measured here: cell number, Hoechst nuclei count;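 nuclei per well as mean of two plates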
Starred values were filed as active, the others as inactive; i = inactive; · = not tested or not shown. A portion of the library. The share of hits here may be higher or lower than overall.

> CCS(=O)c1c(C#N)nn(-c2c(Cl)cc(C(F)(F)F)cc2Cl)c1N (configuration not stated)
  supercomplex: -0.28	supercomplex cell count: 6857

> C[C@]12C=CC(=O)C=C1CC[C@@H]1[C@@H]2CC[C@]2(C)OC(=O)CC[C@@H]12
  supercomplex: 0.16	supercomplex cell count: 5293

> CCc1c(C(=O)C(N)=O)c2c(OCC(=O)O)cccc2n1Cc1ccccc1
  supercomplex: -0.13	supercomplex cell count: 4442

> CC1=C2CC3C(CC=C4CC(O)CCC43C)C2CC[C@]12OC1CC(C)CNC1C2C (some centres not stated)
  supercomplex: -0.17	supercomplex cell count: 4963

> Cc1sc2c(c1C)C(c1ccc(Cl)cc1)=NC(CC(=O)Nc1ccc(O)cc1)c1nnc(C)n1-2 (configuration not stated)
  supercomplex: 9*	supercomplex cell count: 2333*

> NNC(=O)c1ccc(N)cc1
  supercomplex: -0.5	supercomplex cell count: 7660

> Cc1nc(-c2ccc(-c3ccc(C(=O)N4CCc5cc6c(cc54)C4(CCN(C)CC4)CO6)cc3)c(C)c2)no1
  supercomplex: 3.9*	supercomplex cell count: 1770*

> O=C(O)C(=O)c1cn(Cc2ccccc2)c2ccc(-c3ccc(OC(F)(F)F)cc3)cc12
  supercomplex: -0.24	supercomplex cell count: 6472

> O=C(Oc1ccc([N+](=O)[O-])cc1)N1CCC(C(O)(c2ccc3c(c2)OCO3)c2ccc3c(c2)OCO3)CC1
  supercomplex: -0.61	supercomplex cell count: 5952

> C[N@@+]1(CC2CC2)CC[C@]23c4c5ccc(O)c4OC2C(=O)CC[C@@]3(O)C1C5 (some centres not stated)
  supercomplex: 0.022	supercomplex cell count: 4445

> O=C(NC(COc1ccc2[nH]c(=O)[nH]c2c1)c1ccccc1)c1cccn(Cc2ccc(F)c(F)c2)c1=O (configuration not stated)
  supercomplex: -0.66	supercomplex cell count: 5835

> COc1ccc(N(C(=O)Oc2c(C)cccc2C)c2ccnc(Nc3ccc(N4CCN(C)CC4)cc3)n2)c(OC)c1
  supercomplex: i	supercomplex cell count: ·

Of the compounds above, five have four or more nitrogen atoms.
> CCS(=O)c1c(C#N)nn(-c2c(Cl)cc(C(F)(F)F)cc2Cl)c1N (configuration not stated)
  supercomplex: -0.28	supercomplex cell count: 6857

> Cc1sc2c(c1C)C(c1ccc(Cl)cc1)=NC(CC(=O)Nc1ccc(O)cc1)c1nnc(C)n1-2 (configuration not stated)
  supercomplex: 9*	supercomplex cell count: 2333*

> Cc1nc(-c2ccc(-c3ccc(C(=O)N4CCc5cc6c(cc54)C4(CCN(C)CC4)CO6)cc3)c(C)c2)no1
  supercomplex: 3.9*	supercomplex cell count: 1770*

> O=C(NC(COc1ccc2[nH]c(=O)[nH]c2c1)c1ccccc1)c1cccn(Cc2ccc(F)c(F)c2)c1=O (configuration not stated)
  supercomplex: -0.66	supercomplex cell count: 5835

> COc1ccc(N(C(=O)Oc2c(C)cccc2C)c2ccnc(Nc3ccc(N4CCN(C)CC4)cc3)n2)c(OC)c1
  supercomplex: i	supercomplex cell count: ·
